MT1-MMP act inh: inhibitors of human MT1-MMP activation; AID 651647; GFP/RFP ratio change, % at 20 µM; HT1080 RFP-PRO-GFP cells, GFP/RFP ratio fluorescence, overnight; percent of plate control window, DMSO zero; 360,000 compounds, 0.061% hits; P50281;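 active means GFP/RFP ratio change of at least 30% with cell ATP level not reduced by more than half and red fluorescence within 50% of control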; further: strong numbers were not always called active
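Assay system – RFP-PRO-GFP reporter HT1080 cells · Compound dosing – single dose of 20 µM compound, 1% DMSO final · Incubation – overnight compound exposure at 37 °C · Measure – GFP/RFP fluorescence ratio · Benchmarks – DMSO wells and RFP-L50D-GFP cells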
eIF4H FP inh: inhibitors of RNA binding by human eIF4H; 290,000 compounds, 0.94% hits; eIF4H fluorescence polarization binding assay; inhibition, % at 35 µM;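 active means 50% or more with normal probe brightness, or confirmed in later tests; inconclusive means above 50% with abnormal brightness, or retests that disagree; inactive means below 50% or failed in later tests; about a fifth of its hits are not listed in these tables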;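 further: calls also rest on retests at 20 µM and on dose response follow-up; 0% = protein and probe with vehicle and 100% = probe without protein; strong numbers were not always called active; many hits fall short of the cut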
CSC inhib: blocks cancer stem cells | cancer stem cell-like cells viability, luminescence | inhibition, % at 7.5 µM | 300,000 compounds, 1.1% hits;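 active means mean at 75% or more and at least half the replicates too; inconclusive means mean and replicates disagree; tested in HMLE shEcad cells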;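 further: 0% = median of negative and 100% = median of positive control wells; the first replicate is given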
Env fusion inh: inhibitors of HIV Env-mediated cell fusion; HeLa-JRFL Env/CEM21 cell fusion, luciferase; inhibition, % at 12.3 µM; 360,000 compounds, 1.1% hits;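 active means mean replicate inhibition score of at least 50 and every replicate individually at or above 50; inconclusive means only one of the two criteria met; inactive means mean below 50 and not all replicates reaching 50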;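 further: 0% = plate neutral controls and 100% = maraviroc near 300 nM; one replicate is shown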
UUG fidelity: alters start codon recognition fidelity in yeast; AID 602363; 350,000 compounds, 0.13% hits; S. cerevisiae UUG-firefly luciferase reporter, luminescence/redox ratio; activity score, % at 18.7 µM;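 active means replicate mean at a twofold rise or more, about +100% in these data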;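 further: firefly luciferase made from a UUG start codon reports start codon fidelity; reporter light over untreated wells divided by growth signal over untreated wells; some hits fall short of that in this replicate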
PABP FP inh: blocks human PABP binding to poly(A) RNA; P11940; fluorescence polarization; inhibition, % at 35 µM; 290,000 compounds, 1% hits; AID 2014;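 active means 50% or more with normal probe brightness, or confirmed in later tests; inconclusive means above 50% with abnormal brightness, or retests that disagree; inactive means below 50% or failed in later tests; about a fifth of its hits are not listed in these tables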;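 further: calls also rest on retests at 20 µM and on dose response follow-up; controls were probe without protein and protein plus probe with vehicle; some compounds called inactive have numbers as strong as hits; many hits fall short of the cut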
Target sequence (P11940 whole entry, looked up): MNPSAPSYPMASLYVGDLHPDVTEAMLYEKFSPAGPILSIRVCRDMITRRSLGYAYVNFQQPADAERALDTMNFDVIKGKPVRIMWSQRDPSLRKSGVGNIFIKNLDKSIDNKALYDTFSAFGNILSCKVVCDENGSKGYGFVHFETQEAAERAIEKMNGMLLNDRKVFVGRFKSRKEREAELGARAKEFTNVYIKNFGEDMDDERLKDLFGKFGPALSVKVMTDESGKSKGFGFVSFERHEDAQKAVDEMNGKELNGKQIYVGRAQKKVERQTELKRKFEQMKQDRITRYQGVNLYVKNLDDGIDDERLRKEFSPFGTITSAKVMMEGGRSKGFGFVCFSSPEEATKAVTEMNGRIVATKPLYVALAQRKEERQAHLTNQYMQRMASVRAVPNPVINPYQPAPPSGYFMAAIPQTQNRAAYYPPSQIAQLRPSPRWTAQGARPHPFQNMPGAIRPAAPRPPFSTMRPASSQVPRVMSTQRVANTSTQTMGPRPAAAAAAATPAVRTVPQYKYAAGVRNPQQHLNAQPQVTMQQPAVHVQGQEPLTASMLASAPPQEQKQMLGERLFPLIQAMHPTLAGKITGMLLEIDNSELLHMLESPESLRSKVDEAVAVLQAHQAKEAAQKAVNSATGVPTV
Rce1 inhib: blocks yeast Ras-converting enzyme; calls only; yeast membranes, quenched prenylated peptide cleavage fluorescence; 290,000 compounds, 0.27% hits;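 active means fall in fluorescence gain of 50% or more versus controls, with final raw signal at or below 3038400; inconclusive means same 50% fall but final raw signal above 3038400; inactive means fall in fluorescence gain under 50%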;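 further: plate controls were neutral control wells for no effect and wells lacking membranes for full effect; tested at 10 µM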
Target sequence (Q03530 whole entry, looked up): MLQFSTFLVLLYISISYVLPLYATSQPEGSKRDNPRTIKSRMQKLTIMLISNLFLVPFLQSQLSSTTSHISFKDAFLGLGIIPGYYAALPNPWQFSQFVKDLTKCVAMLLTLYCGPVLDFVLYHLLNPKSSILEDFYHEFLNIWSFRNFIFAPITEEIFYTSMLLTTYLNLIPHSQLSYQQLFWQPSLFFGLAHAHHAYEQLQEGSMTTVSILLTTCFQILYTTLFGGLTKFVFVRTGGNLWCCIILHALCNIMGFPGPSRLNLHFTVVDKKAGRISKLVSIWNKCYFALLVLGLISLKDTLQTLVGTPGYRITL
eIF4H FP inh retest: further read-out of eIF4H FP inh, marked with its call; inhibition, %; compound at 20 µM; confirmation average;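 mean of two retest wells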
PABP FP inh retest: second read-out of PABP FP inh, no call of its own (marks repeat the call); inhibition, %; compound at 20 µM; confirmation repeats;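 mean of two retest wells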
MT1-MMP act inh RFP: second read-out of MT1-MMP act inh, no call of its own (marks repeat the call); RFP signal change, %; measured here: RFP expression control read;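 0 = vehicle wells; hits needed this value within 50% of zero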
* hit, by the source's call; i = inactive; ? = inconclusive; · = not tested or not shown.

SMILES | MT1-MMP act inh | MT1-MMP act inh RFP | eIF4H FP inh | CSC inhib | Env fusion inh | UUG fidelity | PABP FP inh | Rce1 inhib | others
COc1ccccc1NC(=O)C(=O)N/N=C(\C)CC(=O)Nc1ccccc1C(F)(F)F | 2 | 6 | -1 | -1 | -13 | 1 | 5 | i
O=C(CN1C(=O)NC2(CCCC2)C1=O)N1CCN(S(=O)(=O)c2ccc(Cl)c(C(F)(F)F)c2)CC1 | 0 | -7 | · | -12 | · | -4 | · | i
CCOCC(=O)Nc1nnc(C)s1 | 4 | 1 | -10 | 1 | -18 | 6 | -4 | i
COC(=O)c1cc(NC(=O)COC(=O)CCc2nc3ccccc3c(=O)[nH]2)cc(C(=O)OC)c1 | 1 | 2 | · | -8 | -8 | -11 | · | ·
Cc1cc2nc(-c3ccccc3)c(Cc3ccccc3)n2c(C)c1Br | 6 | 5 | · | · | -26 | 6 | · | ·
CCc1cccc(NC(=O)C2CCCN(c3cnccn3)C2)c1 (stereo unspecified) | 4 | 2 | -6 | · | 8 | -27 | 4 | i
O=C1CC(SCCc2nc3ccccc3[nH]2)C(=O)N1c1ccc(F)cc1 (stereo unspecified) | 4 | 3 | 1 | -10 | -46 | -23 | 8 | i
CN(C)c1ncnc2c1ncn2[C@H]1CN(Cc2ccncc2)C[C@@H](CO)O1 | 3 | -1 | · | · | 1 | -8 | · | ·
O=C(O)C(=Cc1ccnc2ccccc12)C(=O)O | -4 | -2 | · | · | -11 | -10 | · | ·
Cc1ccc(NC(=O)CSc2nc3ccccc3c(=O)n2CCCC(=O)NCCCN2CCOCC2)cc1C | 3 | 3 | -12 | -1 | 8 | · | -10 | i
CN1CCNC(=O)C1CC(=O)NCCC1=CCCCC1 (stereo unspecified) | 0 | 5 | 1 | -1 | -6 | · | 4 | i
COc1ccc(NC(=O)CC23CC4CC(C2)CC(n2nnc(C)n2)(C4)C3)cc1 | 1 | -1 | 0 | -11 | -9 | · | -13 | i

Filtered by structure: those above with an NH in an aromatic ring
SMILES | MT1-MMP act inh | MT1-MMP act inh RFP | eIF4H FP inh | CSC inhib | Env fusion inh | UUG fidelity | PABP FP inh | Rce1 inhib | others
COC(=O)c1cc(NC(=O)COC(=O)CCc2nc3ccccc3c(=O)[nH]2)cc(C(=O)OC)c1 | 1 | 2 | · | -8 | -8 | -11 | · | ·
O=C1CC(SCCc2nc3ccccc3[nH]2)C(=O)N1c1ccc(F)cc1 (stereo unspecified) | 4 | 3 | 1 | -10 | -46 | -23 | 8 | i

(continued)
SMILES | MT1-MMP act inh | MT1-MMP act inh RFP | eIF4H FP inh | CSC inhib | Env fusion inh | UUG fidelity | PABP FP inh | Rce1 inhib | others
COC(=O)Cn1c(=O)c(C)nc2ccccc21 | -3 | 1 | -8 | 1 | -4 | -28 | -2 | i
O=C(NCc1cccc(F)c1)c1cccc(OC2CCN(C(=O)C3CC3)CC2)c1 | -7 | -19 | -2 | -9 | 22 | 5 | -3 | i
CCOC(=O)C1(Cc2cccc(OC)c2)CCCN(S(=O)(=O)N(C)C)C1 (stereo unspecified) | 1 | 1 | -8 | -10 | 7 | -13 | -11 | i
C=CCNC(=O)c1cc(-c2ccc(Br)cc2)on1 | -1 | -1 | 10 | 0 | · | · | 6 | i
CCOc1ccc(N(CC(=O)Nc2ccccc2OC)S(C)(=O)=O)cc1 | -4 | 1 | -14 | 17 | -7 | 0 | 2 | i
COc1ccc(OCc2cc(C(=O)N3CCCC3)no2)c2ccccc12 | -3 | 4 | 6 | 14 | -59 | -9 | 5 | i
CC1CCCC(NC(=O)COC(=O)c2c[nH]c(=O)[nH]c2=O)C1C (stereo unspecified) | 6 | 7 | 1 | -4 | · | 1 | -3 | ·
CC(C)(C)NC(=O)NCC1CCCC1NC(=O)NC(C)(C)C (stereo unspecified) | -1 | 4 | 3 | -4 | 26 | -14 | 3 | i
O=C1c2cccc3cccc(c23)C(=O)N1/N=C/c1ccc(O)cc1O | -4 | -2 | -3 | 4 | -13 | -11 | 3 | i
CCOC(=O)c1c(NC(=O)c2ccc(S(=O)(=O)N3CCOCC3)cc2)sc2c1CCN(C)C2 | -8 | -9 | -8 | 20 | · | -6 | 10 | i
COc1ccc(CCNC(=O)C(=O)NCC2CCCN2S(=O)(=O)c2cccs2)cc1 (stereo unspecified) | -3 | 3 | · | -12 | · | -17 | · | i
CCCCn1nc(C(=O)Nc2ccc(-n3cnnn3)cc2)c2ccccc2c1=O | 0 | 0 | · | · | 9 | -11 | · | ·
COc1ccc(S(=O)(=O)N2CCCCCC2)cc1C(=O)N1CCCC(C(F)(F)F)C1 (stereo unspecified) | -1 | -10 | · | -17 | -4 | · | · | i
COc1cccc(NC(=O)CCN2CCOCC2)c1 | 2 | 3 | 11 | -13 | 11 | -22 | -6 | i
COc1ccccc1NC(=O)Cn1cnc2sc(C)c(S(=O)(=O)N3CCCCC3)c2c1=O | 5 | 3 | 8 | -11 | · | · | 6 | i
COc1ccc(C(CCN(Cc2ccc(OC)c(OC)c2)C(C)=O)C(C)C)cc1 (stereo unspecified) | -5 | -7 | 0 | -12 | 14 | 24 | 12 | i
CCOc1ccc(CCNC(=O)CN2CCN(Cc3ccc(F)cc3)C2=O)cc1OCC | 1 | 4 | -2 | -7 | · | · | 2 | i
CC(C)C1Oc2ccccc2N(CC(=O)N(Cc2ccncc2)Cc2ccco2)C1=O (stereo unspecified) | -1 | 1 | -1 | -8 | -60 | -13 | 8 | i
Cc1ccc(C(O)c2ncc(-c3ccccc3C(F)(F)F)[nH]2)cc1F (stereo unspecified) | -1 | -3 | · | · | -1 | -28 | · | ·
COc1ccc(-c2cc(=O)oc3cc(OCC(=O)NCCN4CCOCC4)ccc23)cc1 | 4 | 0 | -10 | -14 | 7 | -2 | -10 | i
Cc1cc(S(=O)(=O)NCc2ccc3c(c2)OCO3)ccc1F | 3 | -1 | -5 | 7 | 9 | -5 | 6 | i
Cc1ccc(NC(=O)C2CCCN2S(=O)(=O)c2ccc3c(c2)n(C)c(=O)c(=O)n3C)cc1 (stereo unspecified) | -6 | -5 | -7 | -7 | 10 | · | -11 | i
O=c1oc2ccccc2c(NC2CCCCC2)c1NS(=O)(=O)c1ccc(Cl)cc1 | -3 | -5 | 0 | · | -3 | 13 | -4 | i
CC(C)Cc1cc(C(=O)N2CCCC(C(=O)c3cc(F)ccc3F)C2)no1 (stereo unspecified) | 0 | 0 | -13 | -2 | 1 | 16 | -2 | i
S=c1[nH]nc(CSCc2ccccc2Cl)n1C1CCCCC1 | -1 | 0 | -2 | · | -10 | -16 | 3 | i
Cc1noc(C)c1COc1ccccc1C(=O)N(C)CC(=O)Nc1ccc(Cl)c(Cl)c1 | 4 | 3 | · | 6 | -4 | -5 | · | i
CC(C)Oc1ccc(C(=O)Nc2c3c(nn2C(C)(C)C)CS(=O)(=O)C3)cc1 | -1 | -1 | 12 | -3 | -3 | 2 | 12 | i
COC(=O)CN(C#N)c1nc(NC(C)C)nc(OC)n1 | 1 | 6 | 7 | -1 | · | -18 | -15 | i
O=C1N=NC(=O)N1c1ccccc1 | 4 | 10 | 20 | -6 | 9 | -23 | 9 | i
CCCOC(=O)Nc1nc2ccccc2o1 | -23 | 4 | 72* | 16 | -81 | -17 | 52* | ·
CC1(C)CC(N=c2cc(-c3ccccc3)oc3ccc(Cl)cc23)CC(C)(C)N1 | -7 | -3 | -7 | · | -46 | · | -1 | i
Cc1nn(C(C)C(=O)NC2CCCCCC2)c(=O)c2nn(-c3ccccc3)c(C)c12 (stereo unspecified) | 6 | -3 | -12 | -20 | 7 | 0 | 10 | i
O=C(NCCCN1CCOCC1)c1cc(S(=O)(=O)N2CCOCC2)ccc1Cl | -3 | 2 | · | -15 | -7 | -23 | · | ·
N#Cc1nc(-c2cccs2)oc1NCCN1CCOCC1 | 5 | -4 | -7 | 2 | · | -8 | -2 | ?
Cc1ccccc1NC(=O)NCc1cccnc1 | 2 | -1 | · | -6 | -2 | · | · | i
CC(CCc1ccccc1)NC(=O)Cc1ccccc1 (stereo unspecified) | 3 | 2 | -5 | -9 | -8 | · | 2 | i
CCOc1ccc(CNC(=S)N/N=C/c2ccncc2)cc1 | 0 | -6 | -7 | -24 | 25 | · | 5 | i
CCCCn1c(N)c(N(CCOC)C(=O)c2cnc(C)cn2)c(=O)[nH]c1=O | -2 | 2 | · | -6 | · | -5 | · | i
O=C(Nc1ccc(N2CCOCC2)cc1N1CCOCC1)c1ccc(Br)cc1 | -1 | -3 | -1 | -1 | -4 | -11 | 0 | i
Nc1cc(C(=O)c2cccs2)ccc1Cl | 3 | -1 | -9 | -4 | 7 | 2 | -2 | i
COc1ccc(-c2cc(CNC(=O)CN(C)Cc3ccccc3)on2)cc1 | 1 | -3 | -18 | -24 | · | · | -13 | i
COc1ccc(NC(=O)Nc2ccc(C)cc2OC(F)F)cc1OC | 7 | -3 | 1 | -8 | -29 | 7 | -3 | i
CC(Cc1ccccn1)NC(=O)c1ccc(OC2CCN(CCc3ccccc3)CC2)cc1 (stereo unspecified) | 8 | 0 | -6 | · | -9 | -10 | 0 | i
COc1cccc(N2CCN(Cc3ccsc3)CC2)c1 | 5 | 2 | -3 | 41 | · | · | 39 | i
Cc1cc(C(=O)OCC(=O)NCc2ccccc2)c(C)o1 | 4 | 1 | -4 | -1 | -22 | · | -3 | i
CCOC(=O)c1c(C)oc2ccc(OCC(=O)C(C)(C)C)cc12 | 1 | 1 | -8 | -5 | -15 | -7 | 13 | i
CCC(C(=O)OCC(=O)Nc1ccc(SC(F)F)cc1)c1ccccc1 (stereo unspecified) | 5 | 6 | -3 | · | -38 | -22 | 119 | i | eIF4H FP inh retest=-18;PABP FP inh retest=6
Cc1ccc(NC(=O)c2sc3ncn(CC(=O)N4CCN(c5ccccn5)CC4)c(=O)c3c2C)cc1Cl | 7 | -1 | -11 | 13 | 4 | -5 | -18 | i
CCOC(=O)CC1=C(C(=O)OCC)C(c2ccc(OC)c(OC)c2)C(C#N)=C(N)O1 (stereo unspecified) | -22 | 2 | 42 | -3 | -177 | -10 | 34 | i
CN(NC(=O)c1ccccc1F)c1ncccc1[N+](=O)[O-] | 1 | 2 | -6 | -10 | -1 | -9 | -8 | i
CCC1CCc2c(sc(NC(=O)C3c4ccccc4Oc4ccccc43)c2C(N)=O)C1 (stereo unspecified) | 4 | -1 | -11 | 6 | -45 | · | -4 | i
O=C(NCCCN1CCOCC1)c1cc(-c2ccc(Cl)s2)nc2ccccc12 | 0 | -1 | · | · | 7 | 14 | · | i
Cc1nc(N/N=C\c2ccc3c(c2)OCO3)sc1C | 3 | -4 | -11 | -18 | -43 | -25 | -4 | i
NC(N)=NC(N)=Nc1ccccc1 | 2 | 1 | · | 0 | -58 | -25 | · | ·
COc1cc(OC)cc(C(=O)N[C@H](C(=O)OCC(=O)Nc2ccc(C(N)=O)cc2)C(C)C)c1 | -1 | 3 | -8 | -8 | -7 | · | 6 | i
CN(Cc1ccccc1)C(=O)COc1ccccc1 | 3 | 7 | -5 | · | -10 | 6 | 5 | i
CC(C)C(c1nnnn1Cc1ccco1)N1CCN(c2nc3ccccc3s2)CC1 (stereo unspecified) | -10 | -25 | 5 | · | -19 | -7 | -4 | i
CC1(C(=O)N2CCCCC2)CCN1C(=O)C1(c2ccccc2)CC1 (stereo unspecified) | -1 | 3 | · | · | 4 | -15 | · | ·

Source: PubChem BioAssay (several laboratories)
